Screening results as filed in PubChem.
AF4-AF9 inh – inhibitors of AF4 peptide binding to AF9, primary screen, biochemical, AlphaScreen, biotin-AF4 peptide, FLAG-AF9, single point; hit rate 0.47% among 350,000; Protein AF-9 (Homo sapiens), P42568; inhibition, % at 10 µM; AID 651704, 2012;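 active = every replicate reaching a set inhibition limit, whatever the replicate mean, cut at about 25% in these data; inconclusive = mean inhibition reaches that limit but some replicates miss it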;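 note: 0% = plate neutral control median and 100% = total signal loss; the record names both 10 and 1 µM as test concentration; the first replicate is given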
Target sequence (P42568 whole entry, looked up): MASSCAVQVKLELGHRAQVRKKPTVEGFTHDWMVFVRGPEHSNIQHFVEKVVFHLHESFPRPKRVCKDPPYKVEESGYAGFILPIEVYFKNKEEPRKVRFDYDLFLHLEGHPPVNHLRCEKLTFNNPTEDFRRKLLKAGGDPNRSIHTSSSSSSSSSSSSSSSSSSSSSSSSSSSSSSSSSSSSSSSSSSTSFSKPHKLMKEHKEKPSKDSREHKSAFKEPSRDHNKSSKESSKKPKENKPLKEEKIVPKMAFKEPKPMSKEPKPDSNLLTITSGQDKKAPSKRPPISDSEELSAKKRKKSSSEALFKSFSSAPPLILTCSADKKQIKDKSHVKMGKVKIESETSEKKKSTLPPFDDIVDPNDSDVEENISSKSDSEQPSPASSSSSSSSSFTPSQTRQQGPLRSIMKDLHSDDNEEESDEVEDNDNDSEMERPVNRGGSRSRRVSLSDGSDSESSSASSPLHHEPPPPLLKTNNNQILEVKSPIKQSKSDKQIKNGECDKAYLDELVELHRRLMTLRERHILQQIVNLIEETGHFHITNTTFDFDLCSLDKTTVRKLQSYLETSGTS
FGF22 binding – binders of human FGF22 protein, primary screen, FGF22 synaptogenesis inhibitor project, biophysical, thermal shift, single point; Fibroblast growth factor 22 (Homo sapiens), Q9HCT0; recombinant FGF22 thermal shift, SYPRO orange fluorescence; percent of sucrose octasulfate shift, DMSO zero; calls only at 9.99 µM; hit rate 1.5% among 340,000; AID 651658, 2012;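 active = melting point raised past a set limit in the mean and every replicate; inconclusive = no clear call; three in four hits are not shown here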
Target sequence (Q9HCT0 whole entry, looked up): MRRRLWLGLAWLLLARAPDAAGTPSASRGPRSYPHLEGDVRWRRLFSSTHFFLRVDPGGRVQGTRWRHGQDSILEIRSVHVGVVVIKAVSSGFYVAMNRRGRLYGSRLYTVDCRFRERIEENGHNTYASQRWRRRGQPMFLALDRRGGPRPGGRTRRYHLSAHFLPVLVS
Ecoli rRNA inh – reduced GFP signal of wild-type E. coli, primary screen, bacterial rRNA inhibitor project, GFP/RFP fluorescence, OD600, single point | hit rate 1.6% among 350,000 | E. coli WT GFP vs humanized-ribosome RFP mutants, 24 h; active compounds read low; DMSO median 0, no signal -100 | GFP signal change (wild-type ribosome), % (no concentration beside the values) | AID 720706, 2013;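 active = significant combined selectivity score with lowered wild-type GFP, culture density cut under 30%, mutant RFP and density less affected; inactive = any of these conditions unmet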; note: one replicate is shown; some compounds called inactive have numbers as strong as hits
Ecoli rRNA inh OD600 – also measured in Ecoli rRNA inh; calls as there; OD600 change, %; measured here: OD600 growth;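 optical density of the mix in the first replicate; 0 = DMSO median and -100 = no signal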
Ecoli rRNA inh RFP – further read-out of Ecoli rRNA inh, marked with its call; RFP signal change, %; measured here: RFP humanized mutant strains;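 first replicate; 0 = DMSO median and -100 = no signal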
An asterisk follows results filed as active; & = joins results of further samples.

For COc1ccc2c3c(n(C)c2c1)[C@@H](CO)N(C)CC31CCN(C(=O)C2CCC2)CC1 the results were AF4-AF9 inh 0.2, FGF22 binding inactive, Ecoli rRNA inh -2, Ecoli rRNA inh OD600 -7 and Ecoli rRNA inh RFP -2.2.
For C[C@@H]1CCCCO[C@H](CN(C)C(=O)Cc2ccccc2)[C@@H](C)CN([C@@H](C)CO)C(=O)c2cc(NC(=O)CCCN(C)C)ccc2O1 the results were AF4-AF9 inh 1.3, FGF22 binding inactive, Ecoli rRNA inh -4, Ecoli rRNA inh OD600 1 and Ecoli rRNA inh RFP -0.6.
Screening CO[C@@H]1CN(C)C(=O)c2cc(NC(=O)Nc3cc(F)ccc3F)ccc2OC[C@H](C)N(C)C[C@H]1C returned AF4-AF9 inh 1.6, FGF22 binding inactive, Ecoli rRNA inh -11, Ecoli rRNA inh OD600 -5 and Ecoli rRNA inh RFP -2.8.
`O=S1(=O)c2c(F)cccc2OC(COc2ccccc2)CN1CCc1ccc(F)cc1` (centres undefined) gave AF4-AF9 inh -2.9, FGF22 binding inactive, Ecoli rRNA inh 1, Ecoli rRNA inh OD600 17 and Ecoli rRNA inh RFP -2.8.
COC(=O)[C@H]1[C@H](CO)[C@H]2Cn3c(ccc(-c4cccc(F)c4)c3=O)[C@H]2N1C(C)=O was read as AF4-AF9 inh -1.7, FGF22 binding inactive, Ecoli rRNA inh 1, Ecoli rRNA inh OD600 8 and Ecoli rRNA inh RFP -0.6.
Screening CCC(=O)Nc1ccc2c(c1)C(=O)N(C)C[C@H](OC)[C@H](C)CN(C(C)=O)[C@H](C)CO2 returned AF4-AF9 inh -0.2, FGF22 binding inactive, Ecoli rRNA inh -1, Ecoli rRNA inh OD600 0 and Ecoli rRNA inh RFP -0.2.
`C[C@H]1CCCCO[C@@H](CN(C)C(=O)Cc2ccccc2)[C@@H](C)CN([C@@H](C)CO)C(=O)c2cc(NS(=O)(=O)c3cn(C)cn3)ccc2O1` gave AF4-AF9 inh -0.7, FGF22 binding inactive, Ecoli rRNA inh 1, Ecoli rRNA inh OD600 -1 and Ecoli rRNA inh RFP -0.7.
Screening Cc1noc(C)c1S(=O)(=O)Nc1ccc2c(c1)CC(=O)N([C@@H](C)CO)C[C@@H](C)[C@@H](CN(C)Cc1ccncc1)O2 returned AF4-AF9 inh -2.0, FGF22 binding inactive, Ecoli rRNA inh -2, Ecoli rRNA inh OD600 0 and Ecoli rRNA inh RFP -2.5.
For C[C@@H]1CN([C@@H](C)CO)C(=O)c2cc(NC(=O)Nc3ccc(F)cc3)ccc2O[C@H]1CN(C)C(=O)Nc1cccc2ccccc12 the results were AF4-AF9 inh -0.8, FGF22 binding inactive, Ecoli rRNA inh 1, Ecoli rRNA inh OD600 10 and Ecoli rRNA inh RFP 1.5.
`C[C@@H]1CN([C@H](C)CO)C(=O)CCCn2nncc2CO[C@H]1CN(C)C(=O)CCC(F)(F)F` gave AF4-AF9 inh 0.7&-1.5, FGF22 binding inactive, Ecoli rRNA inh 7&1, Ecoli rRNA inh OD600 8&0 and Ecoli rRNA inh RFP -1.4&-0.3.
COC(=O)C[C@@H]1C[C@@H]2c3cc(NC(=O)CN(C)C)ccc3O[C@@H]2[C@H](CO)O1 was read as AF4-AF9 inh -27, FGF22 binding inactive, Ecoli rRNA inh 2, Ecoli rRNA inh OD600 9 and Ecoli rRNA inh RFP 0.2.
C[C@@H]1CN([C@H](C)CO)C(=O)Cc2cc(NC(=O)C3CC3)ccc2O[C@H]1CN(C)Cc1ccc(C(=O)Nc2ccccc2N)cc1 was read as AF4-AF9 inh 0.2, FGF22 binding inactive, Ecoli rRNA inh -1, Ecoli rRNA inh OD600 -1 and Ecoli rRNA inh RFP -2.7.
For CO[C@@H]1CN(C)C(=O)c2cc(NS(C)(=O)=O)ccc2OC[C@@H](C)N(C(=O)c2ccc3c(c2)OCO3)C[C@@H]1C the results were AF4-AF9 inh -3.6, FGF22 binding inactive, Ecoli rRNA inh 5, Ecoli rRNA inh OD600 6 and Ecoli rRNA inh RFP 1.3.
`CCOC(=O)c1c(SCCN2CCCCC2)n(-c2ccccc2)c(=S)n(-c2ccccc2)c1=O` gave AF4-AF9 inh -0.4, FGF22 binding inactive, Ecoli rRNA inh -1, Ecoli rRNA inh OD600 19 and Ecoli rRNA inh RFP 6.1.
COc1ccc(NC(=O)Nc2ccc3c(c2)C(=O)N([C@H](C)CO)C[C@H](C)[C@@H](CN(C)C)OCCCC[C@@H](C)O3)cc1 was read as AF4-AF9 inh -22, FGF22 binding inactive, Ecoli rRNA inh -2, Ecoli rRNA inh OD600 -2 and Ecoli rRNA inh RFP 0.0.
Screening CO[C@@H]1CN(C)C(=O)c2cc(NC(C)=O)ccc2OC[C@H](C)N(S(C)(=O)=O)C[C@H]1C returned AF4-AF9 inh -3.2, FGF22 binding inactive, Ecoli rRNA inh 0, Ecoli rRNA inh OD600 8 and Ecoli rRNA inh RFP -1.3.
Screening COc1ccccc1C(=O)N1C[C@@H]2[C@H](c3ccccc31)[C@H](CO)N2C(=O)C1CCCC1 returned AF4-AF9 inh -0.3, FGF22 binding inactive, Ecoli rRNA inh 2, Ecoli rRNA inh OD600 13 and Ecoli rRNA inh RFP -2.8.
CNC[C@H]1Oc2c(NC(=O)Nc3c(C)noc3C)cccc2C(=O)N([C@H](C)CO)C[C@@H]1C was read as AF4-AF9 inh -4.5, FGF22 binding inactive, Ecoli rRNA inh 1, Ecoli rRNA inh OD600 2 and Ecoli rRNA inh RFP 0.3.
C[C@H]1CN([C@@H](C)CO)S(=O)(=O)c2ccc(C3=CCCC3)cc2O[C@H]1CN(C)Cc1cccnc1 was read as AF4-AF9 inh 1.6, FGF22 binding inactive, Ecoli rRNA inh -7, Ecoli rRNA inh OD600 -25 and Ecoli rRNA inh RFP -1.4.
O=C(NC1CCCC1)C(c1ccccc1)n1c(CSCCOc2ccccc2)nc2ccccc21 (centres undefined) was read as AF4-AF9 inh -6.9, FGF22 binding inactive, Ecoli rRNA inh 6, Ecoli rRNA inh OD600 12 and Ecoli rRNA inh RFP 0.0.
Screening COc1ccc(NC(=O)N(C)C[C@@H]2OCCCC[C@@H](C)Oc3ccc(NS(=O)(=O)c4ccccc4)cc3C(=O)N([C@@H](C)CO)C[C@@H]2C)cc1 returned AF4-AF9 inh 1.3, FGF22 binding inactive, Ecoli rRNA inh 3, Ecoli rRNA inh OD600 4 and Ecoli rRNA inh RFP -1.2.
For CCCCNC(=O)c1ccc2nc(CC)c(N(CC)CCN(C)C)n2c1 the results were AF4-AF9 inh -0.3, FGF22 binding inactive, Ecoli rRNA inh 5, Ecoli rRNA inh OD600 19 and Ecoli rRNA inh RFP -5.2.
Screening Clc1ccc2nc(-c3cccc(Br)c3)c(Cc3ccsc3)n2c1 returned AF4-AF9 inh -2.3, FGF22 binding inactive, Ecoli rRNA inh -17, Ecoli rRNA inh OD600 -21 and Ecoli rRNA inh RFP 40.
Screening COc1cc(CN2C[C@@H](CO)O[C@@H](n3cnc4c(N5CCCC5)ncnc43)C2)cc(OC)c1OC returned AF4-AF9 inh 0.1, FGF22 binding inactive, Ecoli rRNA inh 10, Ecoli rRNA inh OD600 5 and Ecoli rRNA inh RFP -2.2.
`O=S1(=O)CCN(CCCCc2ccccc2)CC1` gave AF4-AF9 inh -0.8, FGF22 binding inactive, Ecoli rRNA inh 3, Ecoli rRNA inh OD600 1 and Ecoli rRNA inh RFP -1.3.
For C[C@H](CO)N1C[C@H](C)[C@@H](CN(C)C(=O)Cc2ccccc2)OCCCC[C@H](C)Oc2ccc(NC(=O)Nc3ccc(C(F)(F)F)cc3)cc2C1=O the results were AF4-AF9 inh -2.5, FGF22 binding inactive, Ecoli rRNA inh 4, Ecoli rRNA inh OD600 -1 and Ecoli rRNA inh RFP -0.5.
Screening COc1ccc(NC(=O)Nc2ccc3c(c2)C(=O)N([C@H](C)CO)C[C@@H](C)[C@@H](CN(C)CC2CCCCC2)O3)cc1 returned AF4-AF9 inh 2.6, FGF22 binding inactive, Ecoli rRNA inh 1, Ecoli rRNA inh OD600 -7 and Ecoli rRNA inh RFP -0.8.
CC(C)NC(=O)N(C)C[C@H]1Oc2ccc(NC(=O)NC3CCCCC3)cc2C(=O)N([C@@H](C)CO)C[C@H]1C was read as AF4-AF9 inh -1.3, FGF22 binding inactive, Ecoli rRNA inh 3, Ecoli rRNA inh OD600 6 and Ecoli rRNA inh RFP -0.1.
`CO[C@@H]1CN(C)C(=O)c2cc(NC(=O)NC3CCCCC3)ccc2OC[C@H](C)NC[C@@H]1C` gave AF4-AF9 inh 1.3, FGF22 binding inactive, Ecoli rRNA inh 6, Ecoli rRNA inh OD600 7 and Ecoli rRNA inh RFP -4.2.
C/C=C/c1cnc2c(c1)C(=O)N([C@@H](C)CO)C[C@H](C)[C@H](CN(C)C(=O)Nc1ccc(C(F)(F)F)cc1)O2 was read as AF4-AF9 inh 1.0, FGF22 binding inactive, Ecoli rRNA inh -5, Ecoli rRNA inh OD600 2 and Ecoli rRNA inh RFP 2.6.
Screening O=C(Cc1ccccn1)N1CC(=O)N2[C@H](CO)[C@H](c3ccc(C#CCC4CCCC4)cc3)[C@H]2C1 returned AF4-AF9 inh 3.6, FGF22 binding inactive, Ecoli rRNA inh -6, Ecoli rRNA inh OD600 -37 and Ecoli rRNA inh RFP -1.5.
`O=C(Nc1ccc2c(c1)OCCO2)C(C1CC1)N1CCN(c2ccc(C(F)(F)F)cn2)CC1` (centres undefined) gave AF4-AF9 inh -1.7, FGF22 binding inactive, Ecoli rRNA inh -1, Ecoli rRNA inh OD600 -11 and Ecoli rRNA inh RFP -3.1.
`COc1ccccc1S(=O)(=O)N[C@H]1C=C[C@@H](CC(=O)N2CCOCC2)O[C@@H]1CO` gave AF4-AF9 inh -3.1, FGF22 binding inactive, Ecoli rRNA inh 0, Ecoli rRNA inh OD600 3 and Ecoli rRNA inh RFP -1.5.
C[C@@H]1CN([C@@H](C)CO)C(=O)c2cc(NC(=O)Cc3cn(C)c4ccccc34)ccc2O[C@H]1CN(C)Cc1ccc(C(=O)Nc2ccccc2N)cc1 was read as AF4-AF9 inh -3.6, FGF22 binding inactive, Ecoli rRNA inh 0, Ecoli rRNA inh OD600 -1 and Ecoli rRNA inh RFP -0.8.
For COc1ccc(CNC(=O)C[C@H]2CC[C@H](NC(=O)CN(C)C)[C@H](CO)O2)cc1 the results were AF4-AF9 inh -2.2, FGF22 binding inactive, Ecoli rRNA inh 4, Ecoli rRNA inh OD600 7 and Ecoli rRNA inh RFP -0.1.
`Cc1noc(C)c1NC(=O)Nc1ccc2c(c1)C(=O)N([C@@H](C)CO)C[C@@H](C)[C@H](CN(C)C(=O)Nc1ccc(F)cc1)O2` gave AF4-AF9 inh inconclusive, FGF22 binding inactive, Ecoli rRNA inh -2, Ecoli rRNA inh OD600 9 and Ecoli rRNA inh RFP -1.0.
CO[C@H]1CN(C)C(=O)c2ccc(NC(=O)C3CC3)cc2OC[C@H](C)N(CC2CC2)C[C@@H]1C was read as AF4-AF9 inh 1.1, FGF22 binding inactive, Ecoli rRNA inh 2, Ecoli rRNA inh OD600 3 and Ecoli rRNA inh RFP -0.8.
For O=C(C1CCCC1)N1CC2(C1)[C@H](c1ccccc1)[C@H](CO)N2C(=O)CC1CC1 the results were AF4-AF9 inh -1.8, FGF22 binding inactive, Ecoli rRNA inh 4, Ecoli rRNA inh OD600 13 and Ecoli rRNA inh RFP -3.8.
COc1ccc(NC(=O)Nc2ccc3c(c2)C(=O)N([C@H](C)CO)C[C@@H](C)[C@H](CN(C)C(=O)C2CCCCC2)OCCCC[C@@H](C)O3)cc1 was read as AF4-AF9 inh 8.1, FGF22 binding inactive, Ecoli rRNA inh -2, Ecoli rRNA inh OD600 5 and Ecoli rRNA inh RFP -0.5.
For COC(=O)Cc1nnn2c1[C@H](C)[C@H](c1ccccc1Br)OC[C@H](C)C2 the results were AF4-AF9 inh -0.9, Ecoli rRNA inh -8, Ecoli rRNA inh OD600 -6 and Ecoli rRNA inh RFP 4.0.

Some of the compounds tested; rates above refer to the full screens.
